AID504770 = growth inhibitors of E. coli YBA685 in a screen for V. cholerae RctB (chromosome II replication) inhibitors; actives 0.27% (n = 130,000); E. coli YBA685 rctB-dependent plasmid, OD600 growth, 3 h; active compounds read low; z-score (test concentration not listed); AID 504770;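 active = z-score under -2 on both plates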;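 also: wells of about 30 µL received 100 nL stock; score is relative to mean and SD of the test wells; the first replicate is given; strong numbers were not always called active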
CapD inh = CapD enzyme inhibition. purified CapD enzyme, fluorescence intensity read-out; active compounds read low; some hits fall short of the stated cut. z-score (test concentration not listed). actives 0.23% (n = 140,000). AID 492967;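 active = z-score under -4 in either of two replicates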;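 also: stock transfer was 100 nL into about 40 µL; score is relative to mean and spread of the plate; one replicate is shown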
Numbers without * were called inactive; · = not tested or not shown.

structure,AID504770,CapD inh
O=C(N/N=C/c1c(Cl)cccc1Cl)c1cccnc1,·,0.065
CCSc1ccc2c(c1)N(CCCN1CCN(C)CC1)c1ccccc1S2,·,0.06
CCn1c(SCC(=O)OCC(=O)N2c3ccccc3NC(=O)C2(C)C)nnc1-c1ccco1,0.55,·
Cc1c(C(=O)OCC(=O)Nc2ccc(SC(F)F)cc2)oc2ccc(Br)cc12,2.2,·
CC(=NCc1ccccn1)c1c(O)c2ccccc2n(-c2ccccc2)c1=O,-0.85,1.1
O=C(Cc1ccccc1)NCCCl,-0.45,-0.23
CS(=O)(=O)C1=NN2C(=N)/C(=C\c3ccc(-c4ccc(Cl)cc4)o3)C(=O)N=C2S1,-0.2,0.19
CCCCCOc1ccc(C2Oc3ccc(Br)cc3C3CC(c4ccc(OC)cc4)=NN32)cc1 (stereo not drawn),·,1.6
O=C(Nc1cccnc1)c1cccnc1C(=O)O,-0.7,0.43
CN1CCN(NC(=S)N=P(c2ccccc2)(N2CCOCC2)C(C)(C)C)CC1 (stereo not drawn),-0.05,·
CC1=NN(c2ccc(S(N)(=O)=O)cc2)C(=O)C1,-0.75,·
O=c1cc(-c2ccc(Cl)cc2)oc(=O)[nH]1,-1.4,-0.63
O=C(COC(=O)CC1CCCC1)Nc1nnc(-c2ccccc2)o1,0.1,·
CCNC(=O)N(c1ccc2c(c1)CCN2C(C)=O)C1CCN(C(C)=O)CC1,·,-0.095
O=C(CSc1nnc(NC2CC2)s1)c1ccc2c(c1)OCO2,-0.25,·
NC(=O)c1cc(-c2ccccc2)nc2ccccc12,1,·
COc1cccc(-c2nc(-c3cc(OC)c(OC)c(OC)c3)[nH]c2-c2cccc(OC)c2)c1,·,43
O=C(OCCN1CCN(c2ncc(Cl)cc2C(F)(F)F)CC1)N1CCC(O)(c2ccc(Cl)cc2)CC1,·,0.73
O=C(O)c1ccc2nc[nH]c2c1,0,·
Cn1ccnc1SCC(=O)Nc1nncs1,-1.4,-0.7
O=C(c1ccc(-c2ccccc2F)o1)N(CC1CCCO1)C1CCS(=O)(=O)C1 (stereo not drawn),-1.8,·
CC(O)c1cccc(Nc2ncnc3c2cnn3C)c1 (stereo not drawn),-0.85,-0.92
Cc1cc(NC(=O)C(C)c2c(C)n[nH]c2C)no1 (stereo not drawn),-0.25,0.29
Cc1cc(C(=O)NCCN2CCCCC2)no1,-0.35,0.45
O=C(/C=C/c1ccccc1Cl)Nn1cnc2ccccc2c1=O,1,0.55
Cc1ccc(C)c(NC(=O)c2cccc(S(=O)(=O)N3CCCC3)c2)c1,0.1,·
Cc1cc(C(=O)NCC(=O)O)c(C)o1,-0.4,·
Cc1cc(C)c(S(=O)(=O)N2CCCc3ccccc32)c(C)c1,-0.6,-0.035
CC(C)=C1C2C=CC1C1C(=O)N(C(C)C)C(=O)C21 (stereo not drawn),-0.3,-0.47
Cc1ccc(NC2=NCCC2)cc1,-0.9,·
COC(=O)c1cc(NC(=O)c2cc3cccc(OC)c3oc2=O)cc(C(=O)OC)c1,·,-0.22
O=C(O)c1c2c(nc3ccccc13)C(=O)N(C1CCCCC1)C2,-0.9,-0.16
CCOC(=O)C1=C(N)N(c2ccc([N+](=O)[O-])cc2)C2=C(C(=O)CCC2)C1c1ccc(Br)s1 (stereo not drawn),·,-1.3
O=C1Cc2ccccc2C(c2ccc(Br)cc2)N1 (stereo not drawn),·,0.45
CCC(=O)Nc1ccc2c(c1)N(C(C)=O)c1ccccc1CC2,-0.35,·
CS(=O)(=O)OCCN1CCN(S(C)(=O)=O)CC1,·,0.47
CCOC(=O)N1CCC(NC(=O)C(C)n2nc(C)c3sc4ccccc4c3c2=O)CC1 (stereo not drawn),0.6,4.1
CCCCn1c(CCNC(=O)c2ccc(Cl)cc2)nc2ccccc21,-0.6,0.68
CN(C1CCCCC1)S(=O)(=O)c1ccc(C(=O)Nc2ccc3c(c2)C(=O)NC3=O)cc1,-0.85,·
O=C(Nc1cc(=O)[nH]c(=O)[nH]1)C(c1ccccc1)c1ccccc1,2.7,·
CN1/C(=C\C(=O)c2cccnc2)C(C)(C)c2ccccc21,-0.7,·
C[C@@H](c1ccccc1)N1C(=O)CC[C@H]2CC(=O)CC[C@@H]21,0,0.21
Cc1ccccc1C(=O)N1CCc2c([nH]c3ccccc23)C1C(F)(F)F (stereo not drawn),-0.75,-0.74
Cc1cc(N2CCN(C(=O)c3ccco3)CC2)c2ccccc2n1,-0.3,-2
COc1cccc(N/C(SCc2cccc([N+](=O)[O-])c2)=C(/C#N)C(=O)NCCc2ccc(OC)c(OC)c2)c1,·,0.05

Compounds shown so far with four or more nitrogen atoms:
structure,AID504770,CapD inh
CCn1c(SCC(=O)OCC(=O)N2c3ccccc3NC(=O)C2(C)C)nnc1-c1ccco1,0.55,·
CS(=O)(=O)C1=NN2C(=N)/C(=C\c3ccc(-c4ccc(Cl)cc4)o3)C(=O)N=C2S1,-0.2,0.19
CN1CCN(NC(=S)N=P(c2ccccc2)(N2CCOCC2)C(C)(C)C)CC1 (stereo not drawn),-0.05,·
CCNC(=O)N(c1ccc2c(c1)CCN2C(C)=O)C1CCN(C(C)=O)CC1,·,-0.095
O=C(OCCN1CCN(c2ncc(Cl)cc2C(F)(F)F)CC1)N1CCC(O)(c2ccc(Cl)cc2)CC1,·,0.73
Cn1ccnc1SCC(=O)Nc1nncs1,-1.4,-0.7
CC(O)c1cccc(Nc2ncnc3c2cnn3C)c1 (stereo not drawn),-0.85,-0.92
Cc1cc(NC(=O)C(C)c2c(C)n[nH]c2C)no1 (stereo not drawn),-0.25,0.29
CCOC(=O)N1CCC(NC(=O)C(C)n2nc(C)c3sc4ccccc4c3c2=O)CC1 (stereo not drawn),0.6,4.1
COc1cccc(N/C(SCc2cccc([N+](=O)[O-])c2)=C(/C#N)C(=O)NCCc2ccc(OC)c(OC)c2)c1,·,0.05

Next entries follow:
structure,AID504770,CapD inh
CCn1c(=N)n(CC(O)COc2ccccc2)c2ccccc21 (stereo not drawn),0.5,0.28
CCc1ccccc1Nc1cc(C(=O)NCCN2CCCCCC2)c2ccccc2n1,-0.35,-0.89
COc1cccc(/C=C2/Sc3ccc(C(=O)NCc4ccco4)cc3NC2=O)c1,0.55,-0.82
CCOc1cc(C2C(C(=O)OCC3CCCO3)=C(C)NC3=C2C(=O)CCC3)cc(Br)c1O (stereo not drawn),·,-0.4
O=C(N/N=C/c1ccccc1)c1ccc(C(F)(F)F)cc1,·,-0.26
CCOC(=O)C1=NNC2(c3ccc(Cl)cc3)C(=O)N(c3cccc(OC)c3)C(=O)C12 (stereo not drawn),·,-0.39
CN(C)c1ccc(CN2CCN(S(=O)(=O)c3ccc(F)cc3F)CC2)cc1,·,-0.84
CC1=CCC(COC(=O)Nc2ccccc2)CC1 (stereo not drawn),-0.55,15
O=C(O)c1ccccc1/C=C/c1cccs1,·,2
CC(C)(C)C(=O)Nc1cccc(C(=O)O)c1,-0.75,·
CCc1ccc(C(=O)COC(=O)c2cccc(-n3cccc3)c2)s1,1.2,·
O=c1[nH]c2cc3c(cc2cc1CN(Cc1ccco1)S(=O)(=O)c1cccc(C(F)(F)F)c1)OCO3,1.2,·
CC(C)OC(=O)/C(C#N)=C/c1c[nH]c2ccccc12,-0.25,·
Cc1ccc(C=Nc2c(F)cccc2F)o1,0.6,0.98
Cc1cc(C)c(C#N)c(=S)[nH]1,2.4,-2.3
Cc1ccc(C)c(NC(CC(=O)c2ccccc2)C(=O)O)c1 (stereo not drawn),0.15,-0.72
Nc1cccc2c(S(=O)(=O)NC3CCCCC3)cccc12,0.55,-0.55
NC(=O)COc1ccc(/C=C2/SC(=Nc3ccccc3)N(Cc3ccccc3)C2=O)cc1,·,-1.1
CCc1nnc(NC(=O)CSC2=NC(=O)C(NC(C)=O)C(=O)N2)s1 (stereo not drawn),-0.2,·
CCCCNC(=O)Nc1ccc(C2SCCS2)cc1,-0.5,0.56
O=C1c2cccc3c(N4CCOCC4)ccc(c23)C(=O)N1CCOC(=O)C12CC3CC(CC(C3)C1)C2,·,0.61
O=C(ON=C1C2CC3CC(C2)CC1C3)c1cccc(C(F)(F)F)c1,·,-0.49
CCOC(=O)c1cncc(C#CCOC(=O)Nc2ccc(OC(F)(F)F)cc2)c1,0.4,0.65
COCC(NS(=O)(=O)c1c(C)cccc1Cl)C(O)c1ccccc1 (stereo not drawn),·,-1.6
COc1ccc(CNC(=O)C2CCN(S(=O)(=O)c3cnc[nH]3)CC2)cc1,-1.4,1.3
Nc1nc2ccccc2n1CCOc1ccc(Br)cc1,-1.2,0.17
Cc1nc(N)[nH]c(=O)c1CCO,0.6,0.35
CSc1nnc(CNS(=O)(=O)c2ccc(Br)cc2)n1C,·,-0.27
O=c1[nH]cnc2c1nc(N1CCNCC1)n2C1OC(CO)C(O)C1O (stereo not drawn),·,-0.005
Cc1cc(N/C=C(\C#N)C(=O)c2cccs2)no1,0.8,-1.1
CC(C)c1ccc(NCc2nc(-c3ccc(Cl)cc3Cl)no2)cc1,-0.75,-0.26
O=C(COC(=O)c1ccc(Br)o1)Nc1cccc2ccccc12,-0.35,-0.055
Cc1nn(CCC(=O)NCc2ccccc2)c(=O)c2nn(-c3ccccc3)c(C)c12,0.75,0.54
O=C(/C=C1/SC(=O)NC1=O)Nc1nccs1,0.15,·
CNC(=O)C(C)n1c2ccccc2c2cn[nH]c(=O)c21 (stereo not drawn),0.65,6
CC1=C(C(=O)OCC2CCCCC2)C(c2cccc(OCc3ccccc3)c2)NC(=O)N1 (stereo not drawn),·,-1.1
Cc1ccc(CN(CC(=O)O)Cc2cn(-c3ccccc3)nc2-c2cccs2)cc1,-0.55,-0.21
O=C(Cn1cnc2ccccc2c1=O)OCc1ccccc1,2.1,-0.82
COC(=O)c1ccc(NC(=O)CSc2nc3cc4c(cc3cc2C#N)OCCO4)cc1,0.05,·
CCOc1cc2c(cc1OCC)-n1cccc1C(c1c(O)cccc1OC)NC2 (stereo not drawn),-0.2,0.12
Cn1c(=O)c2nc(-c3ccccc3I)oc2c2ccccc21,1.6,-0.24
C=CCOc1cccc(C(=O)NCc2ccccc2)c1,0,-0.11
OC(CSc1ccc(F)cc1)CN1CCN(c2ccc(C(F)(F)F)cn2)CC1 (stereo not drawn),-0.3,-0.095
Nc1nonc1C(=O)OCc1ccccc1Cl,0.55,-0.4
COc1ccc(CCN2COc3ccc4c5c(oc4c3C2)C(=O)c2ccccc2C5=O)cc1OC,0.1,·
CN(Cc1ccccc1)C(=O)CSc1nc(NCc2ccc(Cl)cc2)c2ccccc2n1,0.2,0.48
N#Cc1c(-c2ccco2)cc(-c2ccccc2)nc1SCc1nc2ccccc2[nH]1,0.45,10
CC(Nc1n[nH]c(=O)[nH]c1=O)C(=O)N/N=C/c1ccccc1 (stereo not drawn),-0.75,-0.16
CCCCCCC(=O)Nc1cccc(C(=O)N/N=C/c2cc(OC)ccc2O)c1,·,0.39
O=S(=O)(c1ccc(-c2cc(C(F)(F)F)no2)s1)N1CCCc2ccccc21,-0.35,0.12
O=C(Cn1ncc2ccsc2c1=O)N1CCN(c2cccc(Cl)c2)CC1,-0.55,0.27
CN(C(=O)c1cc2nc(-c3ccco3)cc(C(F)(F)F)n2n1)C1CCCCC1,-0.1,1.4
O=C(NCC(c1ccco1)N1CCc2ccccc21)c1ccccc1 (stereo not drawn),-1.2,·
CC(C)(C)C(=O)OCC1OC(n2cnc(C(N)=O)n2)C(O)C1O (stereo not drawn),0.35,0.41
O=C1Nc2ccccc2/C1=C\c1ccco1,-0.1,-2.9
COc1cccc(NCc2ccc(OC)c(Cn3ccnc3)c2)c1,0.2,1.2
O=S(CC(O)(c1ccccc1)c1ccccc1)c1ccc(Cl)cc1 (stereo not drawn),·,-0.17
CCCc1cnc(N2CCN(C(=S)NC)CC2)nc1,0,3.2
COc1ccc(-c2cc(C(F)(F)F)n3nc(N)nc3n2)cc1,0.4,88
Cc1ccc(-c2csc(=Nc3cccnc3)n2CCCN2CCCC2=O)cc1C,-0.5,·

Remaining list, next part.
structure,AID504770,CapD inh
Cc1c(OCc2ccccc2)cccc1[N+](=O)[O-],·,-0.055
CSc1nc2ccc(S(=O)(=O)N3CCCCC3)cc2s1,0.15,·
O=C(NCc1ccccn1)C1CCN(C(=O)c2cnn(-c3ccccc3)c2-n2cccc2)CC1,0.7,-0.04
COc1ccc(Cl)cc1S(=O)(=O)n1ccnc1C(C)C,-0.35,0.31
O=C1NC(=S)N/C1=C/c1ccc(OCc2ccccc2)c(Br)c1,·,1.3
CN(C)/C=N/NC(=O)Cc1csc2nc(-c3ccccc3)nn12,-0.05,1.1
CCOc1ccc(CCNC(=O)c2ccc3c(=O)n4c(nc3c2)CCCCC4)cc1,0.85,0.29
CCc1cccc2c(C#N)cn(CC(=O)NCc3ccco3)c12,-0.65,1.2
c1ccc(Oc2ccc(-c3cc(N4CCOCC4)n[nH]3)cc2)cc1,2.6,0.69
CN(C)/C=C(\C#N)C(=O)N=C1CCCN1C,0.75,-0.13
Cn1nc(-c2ccccc2)c(-c2nnc(-c3ccc(Cl)cc3)o2)c1Cl,·,0.23
COC(=O)CCc1c(C)nn(-c2ccc(C(=O)N3CCC(C#N)(c4ccccc4)CC3)cc2)c1C,·,-0.54
Cc1ccc(OC(=O)c2ccc(C(F)(F)F)cc2)c(NC(=O)c2ccc(C(F)(F)F)cc2)c1,·,-0.43
O=C(Nc1ccc(-c2noc(-c3cccs3)n2)cc1)c1cccnc1,-0.25,0.53
CCOC(=O)c1[nH]c(C)c(/C(C)=N/O)c1C,·,-0.035

High-throughput results (PubChem BioAssay)

An unsorted share of the library; overall some 0.41% were active at least once.
